MgrA-DNA mod = S. aureus MgrA activity modulators, primary screen, biochemical, S. aureus Newman, fluorescence polarization. MgrA-DNA binding. inhibition, %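 (about 10 µg/mL by stock and volumes)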. hit rate 0.13% among 84,000;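 active means above 50% in either of two replicates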;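 further: 0% = protein plus DNA without compound and 100% = DNA alone without protein; higher means less MgrA bound to DNA so lower polarization; one replicate is shown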
S aureus helic = inhibitors of S. aureus replicative helicase, primary screen, biochemical, fluorescence unwinding readout | replicative DNA helicase (DnaC/DnaB), Staphylococcus aureus | purified S. aureus helicase, fluorescence unwinding assay; about half of the hits fall short of the stated cut | inhibition, %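 (tested at about 80 µM)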 | hit rate 0.05% among 120,000 | AID 485395, 2010;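 active means both duplicates at 50% or more, or one of them with a favoured structure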;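 further: 0% = mean of negative control wells and 100% = mean of positive control wells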
* hit, by the source's call; x = no result given; & = joins results of further samples. Not all compounds are listed (hit frequency here may not be typical).

Start of the data: the first five records, ahead of the listing:
Fields – MgrA-DNA mod, S aureus helic
Cc1ccc(S(=O)(=O)NC(=O)c2c(C)cc3ccccn23)cc1
 : 2.2, -16
C=C(C)Cn1c(-c2cccs2)nc2ccccc21
 : x, 5
CCOCc1c(C(=O)OCC(=O)c2ccccc2)oc2ccccc12
 : x, 1
C=CC(=O)NCC1OCCc2ccccc21 (configuration not stated)
 : 1.5, -2
O=C(O)CNC(=O)c1ccccc1OC(F)F
 : x, 1

Main list, from the start:
Fields – MgrA-DNA mod, S aureus helic
Cc1ccc(S(=O)(=O)NC(=O)c2c(C)cc3ccccn23)cc1
 : 2.2, -16
C=C(C)Cn1c(-c2cccs2)nc2ccccc21
 : x, 5
CCOCc1c(C(=O)OCC(=O)c2ccccc2)oc2ccccc12
 : x, 1
C=CC(=O)NCC1OCCc2ccccc21 (configuration not stated)
 : 1.5, -2
O=C(O)CNC(=O)c1ccccc1OC(F)F
 : x, 1
Cc1cc(-c2ccccc2)nc2cc(C(=O)O)nn12
 : x, -24
Nc1nnc(CC(=O)N2CCCC2)o1
 : x, -17
CSc1sc(-c2ccnc(SCC(=O)c3ccc(Cl)cc3)n2)c2c1C(=O)CCC2
 : -0.4, x
CCn1c(=NC(=O)c2ccccc2OC)sc2cc(Br)ccc21
 : x, -11
COC(=O)c1cc(C(=O)C2CCCCC2)c[nH]1
 : 0.0, x
C=CCc1cccc2ccc(=O)oc12
 : x, -33
CC(=O)NCCOc1ccc(C)cc1
 : x, 4
Cc1ccc(-c2csc(CO)n2)cc1
 : -2.8, x
Cc1ccc(CNC(=O)c2nnc(Cc3ccc(F)cc3)o2)cc1
 : x, -8
CC(C)Oc1ccc(-c2cn3nc(C4CC4)sc3n2)cc1
 : x, 18
Cc1cccc(CC(C(=O)Nc2ccccc2)c2nn[nH]n2)c1 (configuration not stated)
 : 2.8, -1
CC(C)(C)c1cc2ncnc(N3CCOCC3)c2s1
 : -1.2, x
CCCCN(C)C(=O)Cn1ncc2c3ccccc3n(C)c2c1=O
 : -0.9, 12
Cc1ccc(-c2[nH]c(=O)n3ccncc23)s1
 : x, -1
NNC(=O)[C@H]1[C@@H]2C[C@@H]3c4[nH]c5ccccc5c4CCN3C[C@H]2CC[C@H]1O
 : x, 19
COc1ccc(-c2cc(-c3ccccc3)c(C#N)c(SC3CCCCC3=O)n2)cc1 (configuration not stated)
 : 1.4, 3
O=C1NC(=O)N(C2CCCCC2)C(=O)/C1=C/c1ccc(O)cc1
 : 8.6, 2
O=C(NN1CCCCC1)C12CC3CC(CC(O)(C3)C1)C2
 : x, -4
O=C1CCC(=O)N1CN(Cc1ccccc1)Cc1ccccc1
 : x, -4
Oc1ccc(CN2CCCCC2)c2cccnc12
 : 5.7, 7
S=c1oc(-c2ccncc2)nn1CCc1ccncc1
 : x, 14
Cc1ccc2c(c1)c1c(n2CCC(=O)O)C(=O)CCC1
 : 0.7, 8
Cn1c(C(=O)NCCCN2CCCC2=O)cc2sccc21
 : 2.2, 14
CN(Cc1ccccc1)Cc1nc2ccccc2n1C
 : -2.3, 18
Cc1cc(=O)oc2cc(OCc3ccc(C(=O)O)cc3)ccc12
 : x, 8
CCOC(=O)c1ccccc1NC(=O)C1COc2ccccc2O1 (configuration not stated)
 : -1.1, x
COc1ccc(N2CCN(C(C)=C3C(=O)c4ccccc4C3=O)CC2)cc1
 : 5.5, 6
O=C(CSc1ccc(-c2ccncc2)nn1)Nc1ccccc1
 : -1.5, 0
O=C(NCc1ccc2c(c1)OCO2)c1ccc(N2CCCCS2(=O)=O)cc1
 : x, 10
CCOc1ccc(/C=C/C(=O)NC(C)C)cc1
 : 2.2, 11
COC(=O)Cn1ncn2nc(-c3cccs3)cc2c1=O
 : -0.7, 7
CC(Oc1ccccc1)c1nnc(N)s1 (configuration not stated)
 : 2.8, -2
CSc1sc(-c2ccnc(SCC(N)=O)n2)c(-c2ccccc2)c1C#N
 : -1.8, x
CC(C)COc1cccc(OCC(=O)Nc2ccc(F)cc2)c1
 : -1.2, -9
Cc1cccc(C2N(Cc3ccccc3)CCCN2Cc2ccccc2)n1
 : 7.3, 3
Cc1cccc(NC(=O)c2sc3[nH]c(=O)c(C(=O)O)cc3c2N)c1C
 : -2.0, 5
CCn1c(=O)c2sccc2n2c(CCCC(=O)NCc3cccnc3)nnc12
 : 4.2, 3
CCOc1cc2c(cc1C(C)(C)C)NC(=O)CS2
 : x, -4
CC(C)n1c(-c2ccc(N(C)C)cc2)nc2ccccc21
 : x, 13
NC(=O)C1OC(c2ccccc2)OC1C(N)=O (configuration not stated)
 : -0.9, 20
COc1ccccc1C(=O)NCc1ccc2[nH]c3c(c2c1)CCCC3
 : 0.9, 14
c1ccc(CN(Cn2nnc3ccccc32)Cn2nnc3ccccc32)cc1
 : -1.2, 1
Cc1ccc(S(=O)(=O)N2CCOCC2)s1
 : x, 7
O=C1CCCC2=C1C(c1ccccc1O)C1=C(CCCC1=O)O2
 : -1.4, 17
COC(=O)C1=C(C)N(C2CCCC2)C(=O)C1(NC(C)=O)C(F)(F)F (configuration not stated)
 : 0.0, 5
O=C(O)CCC(=O)N1CCSc2ncccc21
 : x, 15
Cc1nc(N)[nH]c(=O)c1CCC(=O)O
 : x, -3
Cc1cc(C)c2c(=O)cc(C(F)(F)F)oc2c1
 : -2.4, 3
c1ccc2[nH]c(SN3CCCCC3)nc2c1
 : 4.2, 13
COc1ccc(-c2cc(C(=O)NC3CCCC3)c3ccccc3n2)cc1
 : 1.5, 4
CCCCc1ccc(NC(=O)CC)cc1
 : 1.2, 13
CC(C(=O)O)n1ncc2ccccc2c1=O (configuration not stated)
 : -6.1, 7
Cc1nn(-c2ccccc2)c2nc3c(cc12)C(=O)CCC3
 : 1.0, -21
FC(F)(F)c1cccnc1Oc1ccc(C2=NCCS2)cc1
 : -1.6, x
CCN(CC)CCn1c2ccccc2c2nc(C)sc21
 : x, -2

Following part.
Fields – MgrA-DNA mod, S aureus helic
Cc1[nH]c2ccccc2c1C(=O)CN1CCN(S(=O)(=O)c2ccccc2F)CC1
 : x, -1
O=C1c2ccccc2C(=O)N1CCc1cn2cccnc2n1
 : -1.9, 12
CC(=O)N(Cc1cccnc1)Cc1cc2cc3c(cc2[nH]c1=O)OCCO3
 : 0.6, 2
COC(=O)c1ccc(-n2nc(C)cc2C)cc1
 : -2.5, 2
CN(C)C(=S)SCC(=O)Nc1cccc(C(F)(F)F)c1
 : x, -5
COc1ccc(C2C3=C(CCCC3=O)N(CC(=O)O)C3=C2C(=O)CCC3)cc1
 : x, 26
Cc1c(NC(C)C)c(=O)n(-c2ccccc2)n1C
 : 1.6&0.5, x
CC(C)c1ccccc1NC(=O)COC(=O)c1ccc2ccccc2n1
 : 0.0, -41
CSc1sc(-c2ccccc2)c2[n+]1CC(=O)N2
 : x, -13
Cc1cc(C)nc(/N=C/c2ccccc2O)c1
 : 2.6, x
CNC(=O)c1c(-c2ccc(C)cc2)nc2ccccn12
 : x, 13
N#CC(C#N)=NNc1ccccc1Oc1ccc(Cl)cc1Cl
 : -0.6, x
CCN(CC)S(=O)(=O)c1cc(C)ccc1NC(=S)NCCN1CCOCC1
 : x, -1
N/C(COc1ccc(Cl)cc1)=N\O
 : 3.5, x
O=C1C2C3c4ccccc4C(c4ccccc43)C2C(=O)N1C(CO)(CO)CO (configuration not stated)
 : 4.8, 0
CCn1c(NN)nc2ccccc2c1=O
 : x, -8
N#CCOC(=O)c1c2c(nc3ccccc13)CCC2
 : x, 6
CCOc1ccc(OC(C)C(=O)O)cc1 (configuration not stated)
 : -4.1, 8
CCC1=Nc2cc(C(=O)O)ccc2Sc2ccc(Cl)cc21
 : 0.6, -1
O=C(NN=Cc1ccc(O)cc1)c1ncn[nH]1
 : 3.1, x
O=C(Cn1c(SCc2cccc(F)c2)nc2ccncc21)NCCC1=CCCCC1
 : x, 10
COc1ccccc1-n1cnc2cc(C(=O)NCC3CCCO3)ccc21 (configuration not stated)
 : x, 7
CCOC(=O)c1ccc2c(c1)nnn2CCc1ccccc1
 : -3.8, 0
Cc1ccsc1C(=O)OCC(=O)N1CCC(Cc2ccccc2)CC1
 : 1.6, 12
O=C(COc1ccccc1Cl)NC(=O)NCC1COc2ccccc2O1 (configuration not stated)
 : x, -6
CN(Cc1ccccc1)C(=O)Cc1noc2ccccc12
 : x, -27
COC(=O)c1ccc(COn2c(=O)c[n+]([O-])c3ccccc32)cc1
 : 0.7, 20
O=C(CCc1ccc(S(=O)(=O)N2CCOCC2)cc1)N/N=C/c1cccc(O)c1
 : x, -4
O=C1NC(=Nc2cccc3ccccc23)SC1(CO)CO
 : -1.6, 10
C(=Nc1cccc2ccccc12)c1ccc(Sc2nnnn2-c2ccccc2)o1
 : 1.4, -3
COc1ccc(C(CC(=O)O)NS(=O)(=O)c2ccccc2F)cc1OC (configuration not stated)
 : x, -3
c1ccc2c(c1)nc(Nc1ccc3c(c1)OCO3)c1nnnn12
 : x, 13
N#CC1=C(SCC(=O)Nc2ccccc2)NC(=O)CC1c1ccccc1F (configuration not stated)
 : x, 0
CN(Cc1ccccc1F)C(=O)CNC(N)=O
 : x, 1
Cc1onc(NC(=O)NC(=O)c2c(F)cccc2Cl)c1Br
 : 2.0, x
Cc1cc(C)c(S(=O)(=O)N2CCC(C(=O)OC(C)C(=O)N3CCC(C)CC3)CC2)c(C)c1 (configuration not stated)
 : x, -5
CC1=C(c2ccc(F)cc2)N2CCS(=O)(=O)N=C2S1
 : x, -12
COC(=O)c1ccc(S(=O)(=O)NC2CCN(Cc3ccccc3)CC2)n1C
 : -0.5, x
N#Cc1ccc(CSc2nnnn2C2CC2)cc1
 : x, 13
N#Cc1sc(=S)n(-c2ccccc2)c1N
 : x, 10
O=C(O)Cc1coc(-c2ccc(F)cc2)n1
 : x, -19
Cc1ccc(C2c3c(oc4ccccc4c3=O)C(=O)N2Cc2ccco2)cc1 (configuration not stated)
 : 2.5, -11
O=C1NN(c2ccc(Cl)c(Cl)c2)C(=O)/C1=C\C=C\c1ccccc1
 : 1.1, 0
CN(C(=O)CSc1nc2ccc(Br)cc2c(=O)n1Cc1ccco1)C1CCS(=O)(=O)C1 (configuration not stated)
 : x, -5
CC1SCC(=O)N(CC(=O)Nc2ccc3c(c2)OCO3)C1=O (configuration not stated)
 : x, 7
CCOC(=O)CNC(=O)c1cccnc1SC
 : 0.0, x
Cc1ccc(NC(=O)N(C2=NCC(C)(C)S2)c2ccc(F)c(Cl)c2)cc1
 : -0.2, x
c1ccc(N2CCN(c3nnc(Cc4cccnc4)c4ccccc34)CC2)nc1
 : x, 4
COc1cc(NS(=O)(=O)c2cc([N+](=O)[O-])ccc2C)c(OC)cc1Cl
 : -0.4, x
CC1CC(C)CN(C(=O)Cn2c(=O)n(CCCC(=O)NCc3ccc4c(c3)OCO4)c(=O)c3sccc32)C1 (configuration not stated)
 : x, 7
O=C(CSc1ncnc2ccccc12)Nc1ccc2c(c1)OCO2
 : x, -16
Cc1onc(-c2c(F)cccc2Cl)c1C(=O)OCC(=O)N(C)c1ccccc1
 : x, 13
CN(C)CCCNc1ncnc2ccc(Br)cc12
 : -0.4, 7
O=C(Nn1cnnc1)c1cc2ccccc2oc1=O
 : -0.5, 12
Cn1ccnc1SCC(=O)Nc1ccccn1
 : x, -14
CCc1ccc2c(CN3CCN(Cc4ccccc4)CC3)cc(=O)oc2c1
 : x, 18
CC(=O)NC(=O)c1cc2cc(Cl)cc(Cl)c2oc1=Nc1cccc(F)c1
 : 2.9, x
Cc1ccc(S(=O)(=O)NC(=O)Nc2ccccc2)cc1
 : x, -17
Cc1[nH]nc2c1C1(C(=O)Nc3ccccc31)C(C#N)=C(N)O2 (configuration not stated)
 : 3.1, x
CC(NC(=O)Oc1c(Cl)cc(Cl)c2ccccc12)(C(F)(F)F)C(F)(F)F
 : -2.8, 13

The list continues:
Fields – MgrA-DNA mod, S aureus helic
C=CCn1c(SCC(=O)Nc2ccccc2)nc2scc(-c3cccs3)c2c1=O
 : x, -18
O=[N+]([O-])c1ccc(Oc2ccc(F)cc2F)nc1
 : -0.5, x
CC(C)(CC(=O)O)CC(=O)Nc1ccc(CC#N)cc1
 : -0.7, x
O=C(O)CCCCN1C(=O)CSC1=S
 : x, 12
CC(C)(C)OC(=O)N1CCC(c2cc(=O)n3[nH]cc(C(=O)NCc4ccco4)c3n2)CC1
 : x, 7
COC(=O)C1=C(C)N(C)C(=O)/C1=C\c1ccco1
 : x, -17
CCC(=O)Nc1nnc(-c2ccc(Cn3c(-c4cncs4)nc4ccccc43)cc2)s1
 : x, -21
CN(Cc1c(F)cccc1Cl)C(=O)C1=CC=CN2CCS(=O)(=O)N=C12
 : x, -9
CN(CCc1ccccn1)c1ncnc2c1cnn2-c1ccc(Cl)cc1
 : x, 1
CCN(CC)S(=O)(=O)c1ccc2[nH]cc(C(=O)NCCCN3CCN(c4ccc(OC)cc4)CC3)c(=O)c2c1
 : x, 10
Cc1ccc(-n2c(C)cc(/C=C(\C#N)C(=O)N3CCCCC3)c2C)cc1
 : x, -20
Clc1ccc(-c2noc(Cc3ccccc3)n2)cc1
 : -0.6, 7
Cc1nc(Nc2nc3ccccc3s2)[nH]c(=O)c1Cc1ccccc1
 : 1.3, 8
N#C/C(=C\c1ccccc1)C(=O)NC1CC1
 : x, 2
CN(C(=O)c1ccc(F)cc1)C1CCS(=O)(=O)C1 (configuration not stated)
 : -1.7, -4
Cc1c(-c2ccnn2C(=O)c2ccco2)cnn1-c1ccccc1
 : -2.3, x
CC(C1CC2CCC1C2)n1c(SCC(=O)Nc2ccc3c(c2)OCO3)nnc1-c1ccco1 (configuration not stated)
 : x, -1
C/C(=N\Nc1c(Cl)cc(Cl)cc1Cl)c1cc(Br)ccc1O
 : 0.7, x
OC(CSc1nc(-c2ccccc2)n(-c2ccccc2)n1)C(F)(F)F (configuration not stated)
 : -0.6, x
NC(=O)NNc1cccc2cccnc12
 : -1.0, 14
